# DUX4 txn inh: blocks DUX4-driven transcriptional activation; 293T-iDUX4 ZSCAN4-Gaussia luciferase reporter, 24 h; active compounds read low; activity change, negative = inhibition, % (test concentration not listed); 0.8% of 37,000 active;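 active = -10% or lower and over 25 points stronger than a control reporter; inconclusive = -10% or lower with a smaller gap; inactive = above -10%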;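 also: 0% = median of neutral control wells and -100% = median of positive control wells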
# DUX4 txn inh difference: also measured in DUX4 txn inh; calls as there; Gaussia minus Italica difference, %; measured here: selective DUX4 reporter inhibition;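 worked out from the two reporters; negative = selective loss of the DUX4 reporter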
# DUX4 txn inh control: second read-out of DUX4 txn inh, no call of its own (marks repeat the call); activity change, negative = inhibition, %; measured here: Italica tet-on control reporter;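 0 = neutral control and -100 = positive control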
# Numbers without * were called inactive; ? = inconclusive; . = not tested or not shown; & = joins results of further samples.
DUX4 txn inh	DUX4 txn inh difference	DUX4 txn inh control	compound
-1.9	-13.8	11.8	O=C(NCCN1CCCC1)[C@@H]1[C@@H](CO)[C@@H]2Cn3c(cccc3=O)[C@H]1N2C(=O)NC1CCCC1
-0.2	-2.2	2.0	O=C(Cc1ccccc1)N1C[C@H]2[C@@H](c3ccccc31)[C@@H](CO)N2C(=O)C1CCCCC1
5.4	-1.7	7.1	O=C(Cc1ccccn1)N1CC(=O)N2[C@@H](CO)[C@H](c3ccc(C#CCC4CCCC4)cc3)[C@@H]2C1
-1.5	-5.5	4.1	C[C@@H]1CCc2cnnn2COC[C@@H](Cc2ccccc2)NC1=O
1.7	2.3	-0.6	C[C@@H]1CN([C@H](C)CO)C(=O)c2cc(-c3cccc(F)c3)cnc2O[C@@H]1CN(C)Cc1ccccn1
3.0	2.1	0.9	CCC(=O)N1[C@H](CO)[C@H](c2ccc(C3=CCCCC3)cc2)[C@@H]1CNC1CCCC1
-3.6	-4.2	0.6	Cc1cccc(S(=O)(=O)N2C[C@@H]3[C@H](c4ccccc42)[C@@H](CO)N3C(=O)CC2CC2)c1
-2.6	-3.0	0.4	CCS(=O)(=O)Nc1ccc2c(c1)C(=O)N(C)C[C@H](OC)[C@H](C)CN(C(=O)C1CCC1)[C@@H](C)CO2
-4.4	-6.9	2.4	O=C(c1ccncc1)N1C[C@H]2[C@@H](c3ccccc31)[C@@H](CO)N2C(=O)c1ccncc1
12.7	-5.4	18.0	COc1cccc(NC(=O)N2C[C@H](O)COC[C@H]3O[C@H](CC(=O)NC4CCCC4)CC[C@@H]32)c1
0.2	2.2	-2.1	CCC(=O)N1[C@@H]2c3ccc(C4=CCCC4)c(=O)n3C[C@@H]2[C@@H](CO)[C@@H]1C(=O)NCc1ccc(F)cc1
?	.	.	COc1ccccc1CNC(=O)C[C@H]1CC[C@@H]2[C@H](COC[C@H](O)CN2Cc2cccc(-c3ccncc3)c2)O1
-4.3	-12.8	8.4	COC(=O)[C@@H]1[C@@H](CO)[C@@H]2Cn3c(ccc(-c4ccccc4F)c3=O)[C@@H]2N1CC1CCOCC1
?	.	.	Cc1ccc(S(=O)(=O)N2C[C@@H](O)COC[C@@H]3O[C@H](CC(=O)NCc4ccc(Cl)c(Cl)c4)CC[C@H]32)cc1
-6.1	-7.1	1.0	C[C@H]1CC(=O)NCC/C=C\C[C@H](c2cccc(Cl)c2)NC1=O
-7.3	-6.5	-0.8	C[C@@H]1CN([C@@H](C)CO)C(=O)Cc2cc(NC(=O)Nc3ccccc3)ccc2O[C@H]1CN(C)CC1CCCCC1
6.4	3.2	3.3	O=C(C[C@H]1C[C@@H]2c3cc(NC(=O)Cc4ccncc4)ccc3O[C@@H]2[C@@H](CO)O1)NCCN1CCCCC1
-0.6	-2.6	1.9	CN1c2ccc(C#Cc3ccc(F)cc3)cc2[C@@H]2[C@@H](CCN2C(=O)CN2CCOCC2)[C@H]1CO
10.4	4.0	6.4	O=C(C[C@@H]1C[C@@H]2c3cc(NC(=O)Nc4ccc(C(F)(F)F)cc4)ccc3O[C@@H]2[C@@H](CO)O1)NCc1cccnc1
4.1	-5.5	9.5	O=C(O)C[C@@H]1C[C@H]2c3cc(NC(=O)Nc4ccccc4F)ccc3O[C@H]2[C@H](CO)O1

# In another format: results already given.
# Values run as follows: DUX4 txn inh, DUX4 txn inh difference, DUX4 txn inh control
> C[C@@H]1CN([C@@H](C)CO)C(=O)Cc2cc(NC(=O)Nc3ccccc3)ccc2O[C@H]1CN(C)CC1CCCCC1
 : -7.3, -6.5, -0.8
> CCC(=O)N1[C@H](CO)[C@H](c2ccc(C3=CCCCC3)cc2)[C@@H]1CNC1CCCC1
 : 3.0, 2.1, 0.9
> O=C(NCCN1CCCC1)[C@@H]1[C@@H](CO)[C@@H]2Cn3c(cccc3=O)[C@H]1N2C(=O)NC1CCCC1
 : -1.9, -13.8, 11.8

# Additional entries:
DUX4 txn inh	DUX4 txn inh difference	DUX4 txn inh control	compound
-0.9	0.6	-1.5	Cc1ccc(S(=O)(=O)Nc2ccc3c(c2)C(=O)N([C@@H](C)CO)C[C@H](C)[C@H](CN(C)S(C)(=O)=O)O3)cc1
-9.2	1.8	-11.0	COc1ccc2c3c([nH]c2c1)[C@H](CO)N(C(=O)Nc1ccc(F)cc1)CC31CCN(Cc2nccs2)CC1
?	.	.	COc1ccccc1S(=O)(=O)N1CC[C@@H]2[C@H]1c1cc(-c3cccc(C#N)c3)ccc1N[C@@H]2CO
3.2	0.0	3.2	CN1C(=O)c2cc(NC(=O)C3CC3)ccc2OC[C@@H]2O[C@H](CC(=O)NCCN3CCCC3)CC[C@H]21
2.8	-2.2	4.9	CCC(=O)N1Cc2cc(C(=O)N3CCN(C)CC3)nc(-c3cccc(-c4cccnc4)c3)c2[C@H]1CCO
4.4	0.2	4.2	O=C(C[C@@H]1CC[C@H]2[C@@H](COC[C@H](O)CN2C(=O)Nc2ccc(F)cc2)O1)NC1CCC1
-0.8	0.4	-1.2	O=C(c1ccc(F)cc1)N1CC2(C1)[C@@H](c1ccccc1)[C@@H](CO)N2Cc1ccccn1
-3.2	-5.5	2.3	CCCC(=O)Nc1ccc2c(c1)C(=O)N(C)[C@H]1CC[C@@H](CC(=O)NCC(F)(F)F)O[C@@H]1CO2
4.0	0.6	3.5	CO[C@@H]1CN(C)C(=O)c2cc(NS(=O)(=O)c3cn(C)cn3)ccc2OC[C@H](C)NC[C@H]1C
?	.	.	COc1ccc(S(=O)(=O)N2CCCCN3[C@H](CO)[C@H](c4ccc(C5=CCCC5)cc4)[C@@H]3C2)cc1
1.0	-2.6	3.6	N#C[C@H]1[C@H](c2ccc(-c3ccc(F)cc3)cc2)[C@@H](CO)N1C(=O)Cc1ccccc1
-2.1	-0.3	-1.8	O=C(N[C@H]1CC[C@H](CCNS(=O)(=O)c2ccc(Cl)cc2)O[C@@H]1CO)c1ccccn1
6.4	3.2	3.2	O=C(O)C[C@@H]1CC[C@@H](NC(=O)c2ccccc2F)[C@H](CO)O1
5.8	0.3	5.5	CC[C@@H]1C/C=C\CCNC(=O)C[C@H](c2ccccc2)C(=O)N1
6.9	1.7	5.1	CCC(=O)N1CC2(C1)[C@@H](c1ccccc1)[C@H](CO)N2CCC(F)(F)F
-2.8	-5.5	2.8	COCC(=O)NC[C@H]1[C@H](c2ccc(-c3ccccc3)cc2)[C@H](CO)N1C(C)=O
-1.7	0.6	-2.2	C[C@@H]1CCCCO[C@H](CN(C)C(=O)CCCN(C)C)[C@@H](C)CN([C@H](C)CO)C(=O)c2cc(NC(=O)Nc3cccc4ccccc34)ccc2O1
1.7	-4.0	5.7	C[C@@H]1CN([C@H](C)CO)C(=O)c2cccc(NC(=O)c3nc4ccccc4s3)c2O[C@H]1CN(C)C(=O)Nc1ccc2c(c1)OCO2
1.5	-2.9	4.3	CCCNC(=O)Nc1ccc2c(c1)OC[C@H](C)N(C(=O)CC)C[C@@H](C)[C@H](OC)CN(C)C2=O
-3.1	-6.7	3.7	C[C@@H](NC(=O)C[C@@H]1CC[C@H]2[C@@H](COC[C@@H](O)CN2C(=O)Nc2cccc(Cl)c2)O1)c1ccccc1

# Overlap with the part before: 5 entries, followed by the next part.
DUX4 txn inh	DUX4 txn inh difference	DUX4 txn inh control	compound
-2.8	-5.5	2.8	COCC(=O)NC[C@H]1[C@H](c2ccc(-c3ccccc3)cc2)[C@H](CO)N1C(C)=O
-1.7	0.6	-2.2	C[C@@H]1CCCCO[C@H](CN(C)C(=O)CCCN(C)C)[C@@H](C)CN([C@H](C)CO)C(=O)c2cc(NC(=O)Nc3cccc4ccccc34)ccc2O1
1.7	-4.0	5.7	C[C@@H]1CN([C@H](C)CO)C(=O)c2cccc(NC(=O)c3nc4ccccc4s3)c2O[C@H]1CN(C)C(=O)Nc1ccc2c(c1)OCO2
1.5	-2.9	4.3	CCCNC(=O)Nc1ccc2c(c1)OC[C@H](C)N(C(=O)CC)C[C@@H](C)[C@H](OC)CN(C)C2=O
-3.1	-6.7	3.7	C[C@@H](NC(=O)C[C@@H]1CC[C@H]2[C@@H](COC[C@@H](O)CN2C(=O)Nc2cccc(Cl)c2)O1)c1ccccc1
2.5	0.1	2.4	COc1ccc(S(=O)(=O)Nc2ccc3c(c2)C(=O)N([C@H](C)CO)C[C@@H](C)[C@H](CN(C)S(=O)(=O)c2cn(C)cn2)OCCCC[C@@H](C)O3)cc1
6.6	5.6	1.0	COc1ccc(NC(=O)Nc2ccc3c(c2)[C@H]2C[C@@H](CC(=O)NCc4ccccc4F)O[C@@H](CO)[C@H]2O3)cc1
24.0	10.1	13.9	C[C@H](O)C#Cc1ccc([C@H]2[C@H]3CN(C(=O)c4ccncc4)CCCCN3[C@H]2CO)cc1
-0.4	-1.8	1.3	N#C[C@H]1[C@H](c2ccc(C#CC3CCCCC3)cc2)[C@@H](CO)N1C(=O)Nc1ccc(F)cc1
0.9	2.1	-1.1	CN1[C@H](C(=O)NCC2CCCCC2)[C@@H](CO)[C@@H]2Cn3c(cccc3=O)[C@@H]21
-1.9	-3.1	1.3	Cc1ccc(S(=O)(=O)Nc2ccc3c(c2)C(=O)N([C@H](C)CO)C[C@@H](C)[C@H](CN(C)Cc2ccc4c(c2)OCO4)OCCCC[C@@H](C)O3)cc1
?	.	.	COc1ccc(CN2CC3(CN(Cc4ccccc4OC)C3)c3c([nH]c4cc(OC)ccc34)[C@H]2CO)cc1
7.7	-6.7	14.4	COC(=O)c1ccc(CN2CC(=O)N3[C@@H](CO)[C@H](c4ccc(-c5cccnc5)cc4)[C@@H]3C2)cc1
?	.	.	O=C(C[C@@H]1CC[C@@H]2[C@H](COC[C@@H](O)CN2CCC(F)(F)F)O1)N1CCC(Cc2ccccc2)CC1
0.6	-2.4	3.0	COc1ccc(S(=O)(=O)Nc2ccc3c(c2)C(=O)N([C@@H](C)CO)C[C@H](C)[C@@H](CN(C)C(=O)NC2CCCCC2)O3)cc1
-5.1	-4.8	-0.3	C[C@H](NC(=O)C[C@H]1CC[C@@H](NC(=O)Cc2ccccn2)[C@H](CO)O1)c1ccccc1
2.5	1.6	0.8	CCCC(=O)Nc1ccc2c(c1)C(=O)N(C)[C@H]1CC[C@H](CC(=O)OC)O[C@@H]1CO2
-7.3	-3.1	-4.3	CCC(=O)N1C[C@H](C)[C@@H](OC)CN(C)C(=O)c2cc(NC(=O)Nc3ccc(Cl)cc3)ccc2OC[C@H]1C
0.6	-5.4	6.0	CCS(=O)(=O)N1CC2(C1)[C@H](c1ccccc1)[C@@H](CO)N2Cc1ccc(F)cc1
-2.3	7.4	-9.7	O=C(CCN1CCCCC1)N[C@@H]1CC[C@H](CCNC(=O)c2cc(Cl)cc(Cl)c2)O[C@H]1CO
10.8&15.6	6.6&9.2	4.2&6.5	CC(C)NC(=O)N1[C@@H]2CNC[C@H]1C2c1ccc(-c2ccccc2)cc1 (some centres not stated)
0.4	-2.5	3.0	CCCC#Cc1cnc2c(c1)C(=O)N([C@@H](C)CO)C[C@H](C)[C@@H](CN(C)C(=O)Cc1ccccc1)O2
?	.	.	O=C(C[C@H]1CC[C@H]2[C@@H](COC[C@@H](O)CN2Cc2cccc(-c3ccncc3)c2)O1)N1CCN(c2ccccc2)CC1
1.3	10.7	-9.4	C[C@H]1CN([C@@H](C)CO)C(=O)CCCn2nncc2CO[C@H]1CN(C)S(=O)(=O)c1ccc2ccccc2c1
-0.4	-3.9	3.5	C[C@H](CO)N1C[C@H](C)[C@H](CN(C)C(=O)Nc2cccc3ccccc23)OCCCC[C@H](C)Oc2ccc(NC(=O)CCC(F)(F)F)cc2C1=O

# Following part:
DUX4 txn inh	DUX4 txn inh difference	DUX4 txn inh control	compound
1.8	1.7	0.1	C[C@H](NC(=O)C[C@H]1CC[C@H](NC(=O)Cc2ccccn2)[C@H](CO)O1)c1ccccc1
-2.1	0.2	-2.3	COc1ccccc1CNC(=O)C[C@H]1CC[C@@H]2[C@H](COC[C@H](O)CN2Cc2ccc3c(c2)OCO3)O1
-2.3	-4.3	2.0	COc1ccc(NC(=O)N(C)C[C@@H]2Oc3ncc(C#C[C@H](C)O)cc3C(=O)N([C@@H](C)CO)C[C@@H]2C)cc1
-1.3	2.6	-4.0	COCC(=O)N1C[C@@H](C)[C@H](OC)CN(C)C(=O)c2cc(NC(=O)c3ccc(OC)cc3)ccc2OC[C@@H]1C
-2.7	-5.1	2.4	CNC[C@@H]1Oc2ncc(-c3ccc(C#N)cc3)cc2C(=O)N([C@H](C)CO)C[C@@H]1C
1.6	-1.4	3.0	CCCNC(=O)C[C@H]1CC[C@@H]2[C@H](COC[C@@H](O)CN2C(=O)CC)O1
6.5	8.8	-2.3	C[C@@H]1CN([C@@H](C)CO)C(=O)CCCn2nncc2CO[C@H]1CN(C)Cc1cccnc1
2.6	-1.8	4.5	Cc1noc(C)c1S(=O)(=O)N(C)C[C@@H]1OCCCC[C@H](C)Oc2ccc(NS(=O)(=O)c3cccs3)cc2C(=O)N([C@H](C)CO)C[C@@H]1C
?	.	.	COc1cccc(-c2ccc([C@@H]3[C@@H](CO)N4CCCCN(C(=O)c5ccc6c(c5)OCO6)C[C@@H]34)cc2)c1
-6.4	1.9	-8.3	CCC(=O)N1CCCCN2[C@H](C1)[C@H](c1ccc(/C=C/c3ccccc3)cc1)[C@@H]2CO
?	.	.	O=C(c1ccccn1)N1CC2(C1)[C@H](c1ccccc1)[C@@H](CO)N2Cc1ccc(Cl)cc1
4.4	-5.3	9.7	O=C(NC1CCCC1)[C@@H]1[C@@H](CO)[C@@H]2Cn3c(ccc(-c4ccncc4)c3=O)[C@@H]2N1CC1CC1
?	.	.	CCCNC(=O)N1CC2(CN(Cc3ccc(OC)cc3)C2)c2c(n(C)c3cc(OC)ccc23)[C@@H]1CO
-4.1	-7.2	3.1	CN(C)CC(=O)N1[C@H](C#N)[C@H](c2ccc(-c3ccc(C(=O)N(C)C)cc3)cc2)[C@H]1CO
17.1	0.3	16.8	CCCC#Cc1ccc([C@H]2[C@H](CO)N3CCCCN(S(=O)(=O)c4ccccc4F)C[C@@H]23)cc1

# From PubChem BioAssay

# These rows are one share of the data; the hit share may differ from the screen's.
